NPYLR7 ag = mosquito NPYLR7 agonism; HEK293T NPYLR7/Galpha15, GCaMP6s calcium fluorescence; activation, % at 10 µM; 0.15% of 270,000 active; AID 1259423; in the data active = activation above about 40%;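 note: 0% = vehicle and 100% = reference agonist at the receptor; some compounds past the cut are filed as inactive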
NPYLR7 ag max-min = recorded beside NPYLR7 ag, whose call it bears; activation, %; measured here: Max-Min RFU normalised activation; some inactives read as strong as hits;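 span of the calcium signal over five minutes; 0% = vehicle and 100% = native peptide agonist; compound fluorescence can raise it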
Active calls of the source: *. Only part of the results is shown; the hit share may differ from the screen's.

What do the screens show for `CCOC(=O)C1=C(C)NC2=C(C(=O)CC(c3ccc(OC)cc3)C2)C1c1ccncc1` (stereo not drawn)?
NPYLR7 ag: -3.9; NPYLR7 ag max-min: -3.9

Results for CCCCc1ccc(N2CC(C)Cn3c2nc2c3c(=O)n(C)c(=O)n2C)cc1 (stereo not drawn) ?
NPYLR7 ag: -1.8; NPYLR7 ag max-min: 14.8

Results for O=C(Nc1nc2ccccc2s1)c1ccc(S(=O)(=O)NCC2CCCO2)cc1 (stereo not drawn) ?
NPYLR7 ag: -8.2; NPYLR7 ag max-min: -13.7

How did CN(C)CCNC(=O)c1ccc(CSc2nc(-c3ccccc3)cc(N3CCN(c4ccccc4F)CC3)n2)cc1 do in these assays?
NPYLR7 ag: 15.0; NPYLR7 ag max-min: 1.2

Results for NS(=O)(=O)N1CCN(c2cccc(F)n2)CC1 ?
NPYLR7 ag: -1.3; NPYLR7 ag max-min: -2.8

What do the screens show for `Cc1cc(NC(=O)CC2(C)N=C(c3ccc(N(C)C)cc3)N(C)O2)n(C)n1` (stereo not drawn)?
NPYLR7 ag: 8.7; NPYLR7 ag max-min: 3.8

How did COc1ccc(-c2nc(=S)c3c([nH]2)Oc2c(cccc2OC)C3)cc1 do in these assays?
NPYLR7 ag: 9.7; NPYLR7 ag max-min: 6.9

What do the screens show for `Cc1cc(C)c(CSCc2ccc(C(=O)N3C4CCC3CC(Oc3ccc(F)cc3F)C4)cc2)c(C)c1` (stereo not drawn)?
NPYLR7 ag: 6.2; NPYLR7 ag max-min: -5.4

How did CCc1ccc(C2c3cccn3CCCN2Cc2cccnc2)cc1 (stereo not drawn) do in these assays?
NPYLR7 ag: 2.1; NPYLR7 ag max-min: 11.0

How did Cn1cccc1C(=O)N1CCC(c2n[nH]c(=O)n2Cc2ccccc2)CC1 do in these assays?
NPYLR7 ag: 6.7; NPYLR7 ag max-min: 3.1

Next section; the last 5 above are carried over.
What do the screens show for `Cc1cc(NC(=O)CC2(C)N=C(c3ccc(N(C)C)cc3)N(C)O2)n(C)n1` (stereo not drawn)?
NPYLR7 ag: 8.7; NPYLR7 ag max-min: 3.8

How did COc1ccc(-c2nc(=S)c3c([nH]2)Oc2c(cccc2OC)C3)cc1 do in these assays?
NPYLR7 ag: 9.7; NPYLR7 ag max-min: 6.9

What do the screens show for `Cc1cc(C)c(CSCc2ccc(C(=O)N3C4CCC3CC(Oc3ccc(F)cc3F)C4)cc2)c(C)c1` (stereo not drawn)?
NPYLR7 ag: 6.2; NPYLR7 ag max-min: -5.4

How did CCc1ccc(C2c3cccn3CCCN2Cc2cccnc2)cc1 (stereo not drawn) do in these assays?
NPYLR7 ag: 2.1; NPYLR7 ag max-min: 11.0

How did Cn1cccc1C(=O)N1CCC(c2n[nH]c(=O)n2Cc2ccccc2)CC1 do in these assays?
NPYLR7 ag: 6.7; NPYLR7 ag max-min: 3.1

How did C#CCn1c(=NC(=O)c2ccc3ncsc3c2)sc2cc(S(C)(=O)=O)ccc21 do in these assays?
NPYLR7 ag: -1.0; NPYLR7 ag max-min: -5.6

What do the screens show for `CCCNC(=O)Nc1ccc(-c2nc3ccc(C)cc3o2)cc1`?
NPYLR7 ag: -5.4; NPYLR7 ag max-min: -2.6

Results for O=C(c1ccccc1OC(F)(F)F)N1CCC(c2cn(Cc3ccc(C(F)(F)F)cc3)c3ccccc23)CC1 ?
NPYLR7 ag: 16.6; NPYLR7 ag max-min: 0.7

Results for CO[C@H]1CN(C(=O)CCCCc2ccccc2)CC[C@H]1N ?
NPYLR7 ag: 4.7; NPYLR7 ag max-min: 3.3

How did O=C(Cc1ccc(O)c(Cl)c1)N1CCCn2cncc2C1 do in these assays?
NPYLR7 ag: -4.7; NPYLR7 ag max-min: -6.6

What do the screens show for `O=C(CCN(CCc1ccccc1)c1nc(-c2ccc(Cl)cc2)nc2ccccc12)NCc1ccccc1`?
NPYLR7 ag: 17.0; NPYLR7 ag max-min: 13.1

What do the screens show for `Cc1cccc(-c2nc3scc(CCNS(=O)(=O)c4cc(C)ccc4C)n3n2)c1`?
NPYLR7 ag: 1.9; NPYLR7 ag max-min: 0.6

Results for CCOCCCN(CC(=O)N1CCc2sccc2C1c1ccccc1)S(=O)(=O)c1ccc(Cl)c([N+](=O)[O-])c1 (stereo not drawn) ?
NPYLR7 ag: -1.7; NPYLR7 ag max-min: 9.7

How did Cc1cc(C(=O)CSc2nnc(NC(=O)COc3ccccc3)s2)ccc1Cl do in these assays?
NPYLR7 ag: 3.8; NPYLR7 ag max-min: 10.4

How did Cc1cc(NC(=O)COC(=O)c2ccoc2)ccc1Br do in these assays?
NPYLR7 ag: -5.4; NPYLR7 ag max-min: -9.6

Nothing new here: entries from further up.
How did Cc1cc(C(=O)CSc2nnc(NC(=O)COc3ccccc3)s2)ccc1Cl do in these assays?
NPYLR7 ag: 3.8; NPYLR7 ag max-min: 10.4

How did Cc1cc(NC(=O)COC(=O)c2ccoc2)ccc1Br do in these assays?
NPYLR7 ag: -5.4; NPYLR7 ag max-min: -9.6

Additional compounds
Results for Cc1ccc(CN(Cc2ccccc2)C(=O)CN(CC2CCCO2)C(=O)Nc2ccc([N+](=O)[O-])cc2)o1 (stereo not drawn) ?
NPYLR7 ag: 2.8; NPYLR7 ag max-min: 16.3

Results for CN(C1CC1)S(=O)(=O)c1c(Cl)cc(Br)cc1Cl ?
NPYLR7 ag: -2.3; NPYLR7 ag max-min: -5.6

Results for CCOC(=O)Cn1ncc2c1CCN(C(=O)Cc1ccc(F)c(F)c1)C2 ?
NPYLR7 ag: -0.5; NPYLR7 ag max-min: 31.3

How did COCCN(CC(=O)N1CCc2sccc2C1COc1cccc(F)c1)C(=O)NC(C)C (stereo not drawn) do in these assays?
NPYLR7 ag: -3.1; NPYLR7 ag max-min: 2.3

Results for N#CC(=Cc1ccco1)c1nc(-c2ccccc2)cs1 ?
NPYLR7 ag: -0.2; NPYLR7 ag max-min: -2.4

How did COC(=O)c1cc(Br)ccc1-c1ccc(C=Nn2cnnc2)o1 do in these assays?
NPYLR7 ag: -6.9; NPYLR7 ag max-min: -13.1

Results for CCOP(=O)(OCC)C(N=C1C(=O)Nc2ccccc21)C(F)(F)F (stereo not drawn) ?
NPYLR7 ag: 2.8; NPYLR7 ag max-min: 0.5

Results for CN(C)CCN1C(=O)C2C3c4ccccc4C([N+](=O)[O-])(c4ccccc43)C2C1=O (stereo not drawn) ?
NPYLR7 ag: -1.9; NPYLR7 ag max-min: -10.5

Results for CCSCCC(C)NC(=O)NC1CCN(C)CC1 (stereo not drawn) ?
NPYLR7 ag: 0.2; NPYLR7 ag max-min: 9.9

Results for Cc1ccc(NC(=O)CCC(=O)N/N=C\c2coc3cc(C)ccc3c2=O)cc1 ?
NPYLR7 ag: -0.8; NPYLR7 ag max-min: -12.0

What do the screens show for `CC(C)(C)OC(=O)Nc1cc2ccccc2cc1C(=O)O`?
NPYLR7 ag: 1.9; NPYLR7 ag max-min: -0.4

What do the screens show for `CCC(C)N(CC(=O)N(CCc1ccccc1)Cc1ccco1)C(=O)c1ccco1` (stereo not drawn)?
NPYLR7 ag: -4.4; NPYLR7 ag max-min: 1.9

What do the screens show for `CCCCn1c(SCC(=O)NC2CC2)nc2cc(S(N)(=O)=O)ccc21`?
NPYLR7 ag: 5.2; NPYLR7 ag max-min: 2.8

What do the screens show for `Cc1ccc(C(=O)NCCCOc2cccc([N+](=O)[O-])c2)cc1[N+](=O)[O-]`?
NPYLR7 ag: -4.7; NPYLR7 ag max-min: -10.2

Results for CCOC(=O)c1ccc2c(c1)nc(SCc1ccccc1I)n2Cc1ccccn1 ?
NPYLR7 ag: -4.4; NPYLR7 ag max-min: -12.9

Results for Cn1cc(C(=O)N2CCCC(C(=O)c3ccc4c5c(cccc35)CC4)C2)c(=O)c2ccccc21 (stereo not drawn) ?
NPYLR7 ag: 13.7; NPYLR7 ag max-min: 0.8

How did Cc1cnccc1N1CCCN(C(=O)c2cc(C3CC3)[nH]n2)CC1 do in these assays?
NPYLR7 ag: 12.0; NPYLR7 ag max-min: 8.7

What do the screens show for `CSc1nnc(C(C)(C)C)c(=O)n1N=Cc1ccc(Cl)cc1`?
NPYLR7 ag: -2.3; NPYLR7 ag max-min: -9.2

Results for C=CCNC(=O)c1ccccc1NS(=O)(=O)N1CCc2ccccc2C1 ?
NPYLR7 ag: 2.8; NPYLR7 ag max-min: 0.4

How did CCN(C)C(=O)Oc1cccc([C@H](C)N(C)C)c1 do in these assays?
NPYLR7 ag: -9.1; NPYLR7 ag max-min: -15.4

How did Cc1noc(C)c1S(=O)(=O)N(C)C1CCCCC1C (stereo not drawn) do in these assays?
NPYLR7 ag: 11.4; NPYLR7 ag max-min: 9.6

Results for CC(=O)N(CCN(C)C)Cc1nccn1Cc1ccc(Cl)cc1Cl ?
NPYLR7 ag: 6.7; NPYLR7 ag max-min: 9.1

What do the screens show for `COc1ccc(NC(=O)c2ccc(Nc3nc(-c4ccccc4)c4cc(C)ccc4n3)cc2)cc1`?
NPYLR7 ag: -17.4; NPYLR7 ag max-min: -5.4

Results for O=C(c1ccc(NS(=O)(=O)c2ccccc2)cc1)N1CCN(C2CCS(=O)(=O)C2)CC1 (stereo not drawn) ?
NPYLR7 ag: 0.9; NPYLR7 ag max-min: 0.2

Results for N#Cc1ccccc1-c1ccc(COc2coc(CN3CCN(C(=O)c4ccc([N+](=O)[O-])o4)CC3)cc2=O)cc1 ?
NPYLR7 ag: 4.6; NPYLR7 ag max-min: 6.4

What do the screens show for `CCCCCOc1ccc(C(=O)O)cc1`?
NPYLR7 ag: -1.1; NPYLR7 ag max-min: 5.0

How did CC(C)(C)OC(=O)NCCCCCC(=O)NCCCOc1cccc([N+](=O)[O-])c1 do in these assays?
NPYLR7 ag: -9.2; NPYLR7 ag max-min: -20.4

Results for N#CC1C(=N)n2c(s/c(=C\c3ccccc3F)c2=O)=C(C(N)=O)C1c1ccccc1F (stereo not drawn) ?
NPYLR7 ag: -6.3; NPYLR7 ag max-min: -6.7

Results for COc1ccc(Cn2cc(C(=O)N3CCCC3c3nc(C(C)C)no3)nn2)cc1 (stereo not drawn) ?
NPYLR7 ag: 7.3; NPYLR7 ag max-min: 5.0

How did Cc1sc(NC(=O)CCN2C(=O)c3ccccc3C2=O)nc1-c1ccccc1 do in these assays?
NPYLR7 ag: -3.1; NPYLR7 ag max-min: -8.5

Results for O=C(CCNC(=O)c1ccc(F)cc1)NCc1cccc2[nH]ccc12 ?
NPYLR7 ag: 4.6; NPYLR7 ag max-min: 3.4

Results for COC(=O)Cn1c(=O)c2c(nc3n(-c4ccc(C(F)(F)F)cc4)c(C)c(C)n23)n(C)c1=O ?
NPYLR7 ag: -2.0; NPYLR7 ag max-min: 6.3

Results for Cc1cc(C(=O)Nc2nc3c(F)cc(F)cc3s2)n(C)n1 ?
NPYLR7 ag: 4.4; NPYLR7 ag max-min: 0.9

What do the screens show for `O=C(Cn1c(=O)[nH]c2ccccc2c1=O)NCc1nc2ccccc2[nH]1`?
NPYLR7 ag: -0.4; NPYLR7 ag max-min: -3.9

Results for CC1=NOC(C)(C(=O)N2CCC(O)(c3ccc(C)cn3)CC2)C1 (stereo not drawn) ?
NPYLR7 ag: 4.3; NPYLR7 ag max-min: 4.1

What do the screens show for `COc1ncccc1NC(=O)NC1(c2ccc(Cl)cc2)CCC1`?
NPYLR7 ag: -6.4; NPYLR7 ag max-min: -9.2

How did Cc1ccc(-c2cn3c(n2)CCC3)cc1 do in these assays?
NPYLR7 ag: 0.7; NPYLR7 ag max-min: -0.5

What do the screens show for `CCCCN(CC)c1ncnc2sc(C)cc12`?
NPYLR7 ag: 12.5; NPYLR7 ag max-min: 5.1

What do the screens show for `Cc1cc(NC(=O)NC(C)(C)c2nc(C)c(C)s2)no1`?
NPYLR7 ag: -5.0; NPYLR7 ag max-min: -6.6

Results for CC(C)c1nnc(SCC(N)=O)n1Cc1ccco1 ?
NPYLR7 ag: 0.2; NPYLR7 ag max-min: 6.4

Next part (2 carried over from the part before).
What do the screens show for `Cc1cc(NC(=O)NC(C)(C)c2nc(C)c(C)s2)no1`?
NPYLR7 ag: -5.0; NPYLR7 ag max-min: -6.6

Results for CC(C)c1nnc(SCC(N)=O)n1Cc1ccco1 ?
NPYLR7 ag: 0.2; NPYLR7 ag max-min: 6.4

What do the screens show for `COc1ccc(-c2nc(-c3ccc(F)cc3)c(C)s2)c(OC)c1`?
NPYLR7 ag: -0.5; NPYLR7 ag max-min: -2.0

What do the screens show for `CCCCN(Cn1nc(-c2ccc(Cl)cc2)oc1=S)C1CCS(=O)(=O)C1` (stereo not drawn)?
NPYLR7 ag: 10.8; NPYLR7 ag max-min: 13.7

Results for CCCCCCC(=O)Nc1c(-c2ccc(OC)c(OC)c2)nc2ccc(C)cn12 ?
NPYLR7 ag: -5.1; NPYLR7 ag max-min: -4.4

How did O=C(O)[C@H]1C[C@@H](O)CCN1S(=O)(=O)c1ccccc1Cl do in these assays?
NPYLR7 ag: 1.2; NPYLR7 ag max-min: -4.8

Results for Cc1c(N=Cc2c(O)[nH]c(=O)[nH]c2=O)c(=O)n(-c2ccccc2)n1C ?
NPYLR7 ag: -4.8; NPYLR7 ag max-min: -8.7

How did CCOc1cc(-c2cn(S(=O)(=O)c3cccc4nsnc34)nc2N)cc(OCC)c1OCC do in these assays?
NPYLR7 ag: 13.3; NPYLR7 ag max-min: 7.3

Results for CCOC(=O)c1c(NC(=O)c2ccc(F)cc2)sc(C(=O)N2CCCCC2)c1C ?
NPYLR7 ag: -8.3; NPYLR7 ag max-min: -14.1

Results for Cc1ccc(C)c(C(O)c2ncc(-c3cccc4ccccc34)[nH]2)c1 (stereo not drawn) ?
NPYLR7 ag: -2.0; NPYLR7 ag max-min: -4.9

How did CNCc1cn[nH]c1-c1ccccc1 do in these assays?
NPYLR7 ag: -10.9; NPYLR7 ag max-min: -15.7

What do the screens show for `CCc1nn(-c2ccccc2)c(Oc2ccc(F)cc2)c1CN(CC(C)O)C(C)C` (stereo not drawn)?
NPYLR7 ag: -2.1; NPYLR7 ag max-min: 3.8

Results for O=C(CC1(O)C(=O)N(Cc2ccccc2)c2ccccc21)c1ccc2c3c(cccc13)CC2 (stereo not drawn) ?
NPYLR7 ag: -2.4; NPYLR7 ag max-min: -8.8

Results for COC(=O)c1ccc(Oc2cc(C)nc(-n3nc(C)cc3C)n2)cc1 ?
NPYLR7 ag: 0.8; NPYLR7 ag max-min: 1.7
